Screening data: PubChem BioAssay, National Center for Advancing Translational Sciences (NCATS)
IMPase cell inh = cell-permeable inhibitors of inositol monophosphatase (IMPase); inhibition (IP1 accumulation), % at 46.1 µM; CHO-M1 cells, IP1 accumulation, HTRF TR-FRET ratio; 120,000 tested, under 10 active; P97697; active = well fitted curve in the direction sought with a large enough effect in the signal ratio, not every such curve was filed as active; inconclusive = small, poorly fitted or top-dose-only effect, or a change in a side signal; inactive = no such curve, though single readings can be large or run the other way; the % refers to the signal ratio;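 note: cells stimulated with carbachol in lithium chloride buffer; plate controls were DMSO basal wells for no effect and reference inhibitor wells for full effect; higher means more IMPase inhibition seen as more IP1 and lower FRET ratio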
Target sequence (P97697 whole entry, looked up): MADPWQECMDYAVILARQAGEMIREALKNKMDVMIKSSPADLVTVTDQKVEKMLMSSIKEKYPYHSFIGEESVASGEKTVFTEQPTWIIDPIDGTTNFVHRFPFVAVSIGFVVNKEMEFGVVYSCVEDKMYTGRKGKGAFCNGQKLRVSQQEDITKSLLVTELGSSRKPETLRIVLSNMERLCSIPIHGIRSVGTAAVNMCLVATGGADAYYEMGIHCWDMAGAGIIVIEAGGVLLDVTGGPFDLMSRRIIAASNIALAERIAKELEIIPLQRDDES
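Cellular IMPase inhibition is scored as a rise in cytosolic IP1, detected by competitive TR-FRET between d2-labelled IP1 and a europium anti-IP1 antibody. M1-expressing CHO cells were stimulated with carbachol for 30 min at 37C, with lithium (50 mM LiCl) present in the buffer.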
PNC assembly inh = perinucleolar compartment assembly inhibition. PC3M PTB-GFP, PNC prevalence imaging, 16 h; active compounds read low. activity change (PNC), negative = inhibition, % at 10 µM. 140,000 compounds, 3.1% hits;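 active = readout at or below -70, meaning at least 70% loss of cells showing the perinucleolar compartment, a nuclear body marking cancer cells; inconclusive = readout between -30 and a set limit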;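 note: plate controls were DMSO wells for no effect and camptothecin positive control wells for full effect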
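Read-out is percentage of cells bearing a perinucleolar compartment, from automated 20x imaging of fixed, Hoechst-stained PC3M PTB-GFP cells. Cells were seeded 4 h, then exposed 16 h to compound (23 nl of library stock) in duplicate plates.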
12-hLO inh = 12-hLO (ALOX12) enzyme inhibition. purified 12-hLO, xylenol orange hydroperoxide absorbance. Potency, µM (doses to about 57.1 µM), without a hit: at the top dose activity change, negative = inhibition, most hits filed as inhibitors. 150,000 compounds, 0.12% hits. P18054. AID 1452; active = well fitted inhibition curve with a large enough effect; inconclusive = small, poorly fitted or top-dose-only effect; note: potency is the fitted concentration of half-maximal effect; nearly all actives have a fitted effect of over 55% in size; many of its hits are not listed in these tables
Target sequence (P18054 whole entry, looked up): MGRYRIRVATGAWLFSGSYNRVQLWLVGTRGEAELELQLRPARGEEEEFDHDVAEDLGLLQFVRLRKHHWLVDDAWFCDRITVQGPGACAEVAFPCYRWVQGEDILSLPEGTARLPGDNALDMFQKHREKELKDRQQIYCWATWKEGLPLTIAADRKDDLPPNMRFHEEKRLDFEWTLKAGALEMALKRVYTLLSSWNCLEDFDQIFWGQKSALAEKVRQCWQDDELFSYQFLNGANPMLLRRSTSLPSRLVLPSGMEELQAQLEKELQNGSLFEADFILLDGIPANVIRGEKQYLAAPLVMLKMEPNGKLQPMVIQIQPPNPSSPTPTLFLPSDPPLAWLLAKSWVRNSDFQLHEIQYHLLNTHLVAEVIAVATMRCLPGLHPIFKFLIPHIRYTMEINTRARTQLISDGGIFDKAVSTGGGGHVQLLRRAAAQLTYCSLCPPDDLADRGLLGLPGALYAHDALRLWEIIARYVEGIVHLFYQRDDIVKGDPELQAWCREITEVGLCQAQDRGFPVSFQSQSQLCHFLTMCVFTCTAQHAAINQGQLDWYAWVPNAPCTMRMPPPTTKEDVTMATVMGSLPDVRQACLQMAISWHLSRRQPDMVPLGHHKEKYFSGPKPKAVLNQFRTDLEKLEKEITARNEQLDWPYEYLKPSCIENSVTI
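Lipoxygenase turnover measured by absorbance at 573 and 405 nm after Fe-XO development. Human 12hLO 150 nM, arachidonate 40 uM, pH 7.0 Hepes buffer with detergent; 15 min compound preincubation, 30 min reaction.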
* = called active by the depositor; u = inconclusive; x = no result given; [ ] = another dose, or the depositor's remark. Unless noted, % is set by controls: 0 for no effect and ±100 for the full control effect. A portion of the library (hit frequency here may not be typical).

Order of results: IMPase cell inh	PNC assembly inh	12-hLO inh
> CCOc1ccc2c(c1)C(C)=CC(C)(C)N2C(=O)Nc1ccccc1
  9	17	u
> COc1ccc(OCC(=O)Nc2cccc(C(C)=O)c2)cc1
  18	u	0%
> CCC(C)(C)n1nnnc1C(c1cccs1)N1CCc2ccccc21 (configuration not stated)
  -7	-5	-19%
> CCC(C)(C)n1nnnc1CN1CCN(c2nc3cc(OC)ccc3cc2C#N)CC1
  10	-18	-5%
> COc1cc(/C=C(/C#N)c2nc3ccccc3[nH]2)ccc1OCc1ccc(C(=O)O)o1
  9	-1	u
> Cc1cc(C)n(-c2nc(-c3cccc(Cl)c3)cs2)n1
  7	31	-4%
> CC1=C(C(=O)Nc2cccnc2)C(c2ccccn2)n2nnnc2N1 (configuration not stated)
  2	34	-5%
> COc1ccc(C(=O)c2no[n+]([O-])c2C(=O)c2ccc(OC)cc2)cc1
  0	16	-2%
> CCOC(=O)C(NC(=O)CC)(Nc1sc2c(c1C(=O)OC)CCN(C)C2)C(F)(F)F (configuration not stated)
  -2	-29	4%
> CCC(=O)c1ccc(OCC(=O)N2CCc3cc(OC)c(OC)cc3C2)cc1
  -4	4	-6%
> COc1ccc(C2C(C(=O)OCC3CCCO3)=C(C)NC3=C2C(=O)CC(c2ccco2)C3)cc1O (configuration not stated)
  1	52	-7%
> O=C(N[C@@H](Cc1ccccc1)C(=O)NC1CCCCC1)c1ccco1
  -2	-7	3%
> O=C1CC(c2ccc(F)c(Br)c2)C2=C(CCCC2=O)N1 (configuration not stated)
  1	-2	4%
> COc1ccc(C(=O)N2CCC(n3c(C)nc4cc(F)ccc43)CC2)cc1OC
  5	24	4%
> COCCNS(=O)(=O)c1ccc(-c2ccc(C)cc2)cc1
  7	-18	0%
> CC(C)=CC(=O)Nc1nnc(-c2cccnc2)s1
  -3	13	-3%
> Cc1ccc(C2C3=C(CC(C)(C)CC3=O)NC3=C2C(=O)CC(C)(C)C3)o1
  2	9	-1%
> COc1ccc(CNc2cccc(F)c2)cc1Br
  2	8	3%
> O=C(NCc1ccc(F)cc1)C1CC(=O)N(CCc2ccccc2)C1 (configuration not stated)
  1	2	4%
> CCOC(=O)NC(Nc1sc2c(c1C(N)=O)CCCC2)(C(=O)OCC)C(F)(F)F (configuration not stated)
  13	-16	-7%
> Cc1cc(NC(=O)c2ccc3c(c2)C(=O)N(C2CCCCC2)C3=O)no1
  13	u	10%
> OC1CN=C2Sc3ccccc3N2C1 (configuration not stated)
  -5	u	-2%
> CC(C)(C)C(=O)Nc1ccc2c(c1)-c1cc(NC(=O)C(C)(C)C)ccc1C2
  -1	73	1%
> Cc1cc(N2CCCC2=O)c(N)cc1N
  12	-4	-6%
> O=C(COc1ccccc1)N1CCc2ccccc2C1
  10	u	-3%
> Cc1ccc2c(c1)C(=O)C1(O)CCN(c3ccccc3)C1=N2 (configuration not stated)
  x	x	1%[0.00818 µM]
> COc1ccc(S(=O)(=O)N2CCCN(CCC(=O)Nc3cccc(C(F)(F)F)c3)CC2)cc1
  -2	-6	-27%
> Cc1sc2nc(CN3CCCC3)nc(N3CCN(S(=O)(=O)c4cccs4)CC3)c2c1C
  15	-5	-21%
> CCCCNC(=O)COC(=O)c1ccc(NS(=O)(=O)c2ccc3c(c2)OCCO3)cc1
  2	19	-1%
> N#CC(c1cccc(C(F)(F)F)c1)(c1ncc(C(F)(F)F)cc1Cl)N1CCOCC1 (configuration not stated)
  9	7	0%

Reprinted at random: three records from the list
Order of results: IMPase cell inh	PNC assembly inh	12-hLO inh
> COc1ccc(S(=O)(=O)N2CCCN(CCC(=O)Nc3cccc(C(F)(F)F)c3)CC2)cc1
  -2	-6	-27%
> CCOC(=O)NC(Nc1sc2c(c1C(N)=O)CCCC2)(C(=O)OCC)C(F)(F)F (configuration not stated)
  13	-16	-7%
> Cc1ccc(C2C3=C(CC(C)(C)CC3=O)NC3=C2C(=O)CC(C)(C)C3)o1
  2	9	-1%

Further entries follow.
Order of results: IMPase cell inh	PNC assembly inh	12-hLO inh
> C=CCn1c(CCNC(=O)c2ccccc2F)nnc1SCC(=O)Nc1nc(C)cs1
  -6	u	0%
> CC(=O)Cc1nsc(NC(=O)c2ccc(COc3ccccc3)o2)n1
  0	-3	-5%
> CCOC(=O)c1cc(C(=O)OCC)c2cccc(C)n2c1=O
  -12	-7	-7%
> Cc1cc(NC(=O)CSc2ccc3ccccc3c2)no1
  1	-24	-6%
> O=S(=O)(Nc1cccc(C(F)(F)F)c1)c1cnc[nH]1
  -11	u	1%
> S=C(NCCSCc1ccc(Cl)cc1)Nc1ccccc1
  7	25	u
> CCc1ccc(S(=O)(=O)Nc2ccc(-c3nc4cccnc4s3)cc2)s1
  -19	28	-18%
> CCC(CC)C(=O)OCC(=O)Nc1ccc(S(=O)(=O)N2CCOCC2)cc1OC
  -11	14	4%
> CC1CCc2nc(NC(=O)CN3CCN(c4ccc(F)cc4)CC3)sc2C1 (configuration not stated)
  0	22	-1%
> CSCC[C@H](NC(=O)OC(C)(C)C)C(=O)N1CCC(C(=O)N[C@@H](C)C(=O)O)CC1
  -6	6	1%
> COCCNC(=O)C1CC(=O)N(CCc2ccccc2)C1 (configuration not stated)
  5	59	0%
> COCCn1c(=NC(=O)CSC(C)=O)sc2cc(OC)ccc21
  22	29	-8%
> CC1CC(C)CN(CCCn2c(=S)[nH]c3ccccc3c2=O)C1 (configuration not stated)
  -6	17	2%
> CSCC[C@H](NC(=O)OC(C)(C)C)C(=O)N1CCC(C(=O)N[C@H](C(=O)O)C(C)C)CC1
  -3	16	-5%
> C=CCn1c(CCNC(=O)c2ccccc2F)nnc1SCC(=O)Nc1nc2ccccc2s1
  -6	-17	-4%
> COc1ccc(/C(C)=N\n2cnnc2)cc1
  -14	-27	-1%
> S=C(Nc1ccc(Cl)cc1Cl)Nc1ccccc1Oc1ccccc1
  8	46	u
> CCN(CC)S(=O)(=O)c1cccc(NC(=O)COC(=O)c2cc(C)oc2C)c1
  1	7	-2%
> c1ccc(N(c2ccccc2)c2nc(N3CCCC3)nc(-n3ccnc3)n2)cc1
  6	3	-6%
> CC(C)(C)c1cc(NC(=O)C2CCCO2)no1 (configuration not stated)
  -9	u	4%
> COC(=O)c1cc2ccsc2n1Cc1cc(=O)n2ccccc2n1
  16	u	-5%
> COC(=O)CSc1nc(N)c(C#N)c(C(C)C)c1C#N
  -6	52	-7%
> Cn1c(SCCOc2cccc(Cl)c2)nnc1-c1ccncc1
  5	28	5%
> CCOC(=O)C1CCN(C(=O)c2ccc(SC)cc2OC)CC1
  -8	42	2%
> CC(C)(C)CC(=O)NC(=S)Nc1ccccc1C(F)(F)F
  5	49	-16%
> CC(C)(C)N(Cc1ccccc1)C(=O)c1ccc2c(c1)OCCO2
  1	26	-4%
> O=C(NCc1cccs1)c1cccc(S(=O)(=O)N2CCCCC2)c1
  2	u	-3%
> Cc1c(C)c2c(c(C)c1O)CCC(C)(COc1ccc(CC3SC(=O)NC3=O)cc1)O2 (configuration not stated)
  x	x	-19%[0.00818 µM]
> O=C(CSc1ccc2c(c1)OCCO2)Nc1ccc(Cl)cn1
  11	15	-1%
> Cc1nnc(Sc2c(-c3ccccc3)c3ccc(Cl)cc3[nH]c2=O)s1
  11	57	-14%
> Cc1csc(OCc2ccc(C#N)cc2)n1
  -2	u	-2%
> C=CCOc1nc2c(c(=O)n(C)c(=O)n2C)n1Cc1ccc(Cl)cc1Cl
  5	-7	-2%
> CC(C)(C)c1ccc(OCC(=O)NC2CCS(=O)(=O)C2)cc1 (configuration not stated)
  3	-13	3%
> Cc1cccc(CCNc2nc3ccccc3n3nnnc23)c1
  0	14	-9%
> CCCCCn1c(N)c(C#N)c2nc3ccccc3nc21
  -15	38	-13%
> O=C(NCc1ccccc1)c1cc(=O)nc2sc(-c3ccccc3)nn12
  u	u	-8%
> COc1ccc(C(C#N)Nc2ccc(C)cc2)cc1 (configuration not stated)
  -1	44	1%
> CCN1CCN(C(c2ccccc2F)c2nnnn2Cc2ccc3c(c2)OCO3)CC1 (configuration not stated)
  -4	20	-1%
> CC1=CC(C)(C)Nc2ccc(OC(=O)C(C)N3C(=O)c4ccccc4C3=O)cc21 (configuration not stated)
  -11[1.84 µM]	-2	1%
> CCCC(=O)NC(=S)Nc1cccc(NC(=O)c2ccc(Cl)cc2Cl)c1
  8	15	-8%
> FC(F)(F)c1ccc(N2CCN(c3cc(-c4ccccc4)nc4ncnn34)CC2)nc1
  12	56	0%
> CC(C)OC(=O)C1CC=CCC1C(=O)Nc1ccc(Cl)cc1 (configuration not stated)
  9	31	-7%
> CC(OC(=O)c1cc(=O)[nH]c2ccccc12)c1ccccc1 (configuration not stated)
  -6	12	-5%
> Cc1c(C=O)c2ccccn2c1C(=O)c1ccncc1
  -3	8	-5%
> COCCCn1c(=N)c(C(=O)NCc2ccc3c(c2)OCO3)cc2c(=O)n3ccccc3nc21
  -4	-15	-10%
> CCn1c(=N)c(C(=O)OC)cc2c(=O)n3ccccc3nc21
  -5	8	-9%
> Cc1cc(C)c(NC(=O)C2CCCN2CCO)c(C)c1 (configuration not stated)
  -11	19	-2%
> CCOC(=O)C(Oc1ccc(=O)[nH]n1)C(C)=O (configuration not stated)
  1	40	3%
> C=CCn1c(SCC(=O)Nc2cc(C)nn2-c2ccccc2)nnc1C1CCCCC1
  -3	-2	-3%
> CCSc1nnc2c(n1)[nH]c1c(C)cccc12
  15	u	4%
> c1cncc(C(c2nnnn2C2CCCC2)N2CCN(Cc3ccc4c(c3)OCO4)CC2)c1 (configuration not stated)
  1	5	-3%
> CC(C)c1nc(NCC2CCCO2)c(C#N)c2c1COC(C)(C)C2 (configuration not stated)
  4	-8	-3%
> COc1cc2c(cc1NC(=S)Nc1cccc(C)c1)oc1ccccc12
  u	u	-7%
> COc1ccccc1N1CCN(CCOc2c(OC)cccc2OC)CC1
  -5	u	2%
> CSCc1cc(N(C)C)nc(SCc2ccc(Cl)c(Cl)c2)n1
  0	8	0%
> CCOC(=O)N1CCN(S(=O)(=O)Cc2ccccc2)CC1
  -1	56	-1%
> CCN1CCCC1CNS(=O)(=O)c1ccc(C(=O)Nc2ccccc2)cc1 (configuration not stated)
  4	u	-5%
> O=C(CCc1ccc(S(=O)(=O)NCCc2ccccc2)cc1)Nc1ccc2c(c1)OCO2
  3	2	-1%
> CC(C)(C)n1nnnc1C(c1cccs1)N1CCN(Cc2ccc3c(c2)OCO3)CC1 (configuration not stated)
  2	-11	2%
> COc1cc(C)c(Cl)c(C)c1S(=O)(=O)NCc1ccc2c(c1)OCO2
  16	-27	-5%

Next section.
Order of results: IMPase cell inh	PNC assembly inh	12-hLO inh
> COc1ccc(-c2nnc(SCC(=O)Nc3cc(C)on3)n2C)cc1OC
  -1	7	-6%
> CCOc1ccccc1-c1nc2c([nH]1)c(=O)n(C)c(=O)n2C
  -17	-27	2%
> C=CCn1c(CCNC(=O)c2cccs2)nnc1SCC(=O)Nc1cccc(C(C)=O)c1
  -1	38	-1%
> CCc1ccc(C2C(C(=O)O)c3ccccc3C(=O)N2C)cc1 (configuration not stated)
  -6	46	2%
> Cc1ccc2cc(C(=O)O)c(C)nc2c1
  1	49	-2%
> O=C(CN1CCOCC1)n1c2ccccc2c2ccccc21
  -5	51	0%
> COc1ccc(S(=O)(=O)N(CCCN2CCOCC2)Cc2ccc(OC)c(OC)c2)cc1
  u	-28	-3%
> CCN(CC)C(=O)C1=C(C)Nc2nnnn2C1c1cccnc1 (configuration not stated)
  -1	u	2%
> CCCNC(=S)Nc1ccc(Nc2ccccc2)cc1
  -5	43	u
> O=C(CSc1c(Cl)cccc1Cl)N1CCC(c2nc3ccccc3s2)CC1
  8	70	1%
> CCn1c(COc2ccc(Cl)cc2)nnc1SCC(=O)Nc1ccc2c(c1)OCCO2
  -4	11	-9%
> Cc1cc(C(F)(F)F)nc(Nc2nc(C)c3ccccc3n2)n1
  8	-13	-2%
> Cc1ccc(N(NC(=O)C(C)(C)O)C(=O)c2ccccc2)cc1C
  -2	u	-4%
> CC1CCN(C(=S)c2cn(Cc3ccc(F)cc3)c3ccccc23)CC1
  4	10	u
> O=C(CCc1ccc(CCC(=O)c2cccs2)s1)c1cccs1
  4	-4	2%

Among those listed so far, these have bromine:
Order of results: IMPase cell inh	PNC assembly inh	12-hLO inh
> O=C1CC(c2ccc(F)c(Br)c2)C2=C(CCCC2=O)N1 (configuration not stated)
  1	-2	4%
> COc1ccc(CNc2cccc(F)c2)cc1Br
  2	8	3%
